nsP2pro inh – inhibitors of chikungunya virus nsP2 protease; Q8JUX6; FRET peptide cleavage, nsP2pro, fluorescence 1 h; Potency, µM (titrated, usually from 24.9 µM), for inactives: top-dose activity change, negative = inhibition, actives largely listed as inhibitors; 1.1% of 31,000 active; AID 1964107; active means well fitted inhibition curve with a large enough effect; inconclusive means small, poorly fitted or top-dose-only effect; inactive means no such curve, though single readings can be large or run the other way; note: nearly all actives have a fitted effect of over 60% in size; a reference inhibitor and vehicle were the controls
* = called active by the depositor; i = inactive; ? = inconclusive; [ ] = another dose, or the depositor's remark. % is set by controls: 0 for no effect and ±100 for the full control effect; potency is the fitted concentration of half-maximal effect.

The first 4 compounds (preview)
SMILES	nsP2pro inh
CC(Oc1ccccc1Cl)C(=O)N1CCN(CCc2ccccn2)CC1 (configuration not stated)	-19%
CC(C)[C@@](O)(c1ccc2cc(OC(F)F)c(OC(F)F)cc2c1)c1cn[nH]n1	491%[activator]
CO[C@H](C)[C@H](N)C(=O)N1CCC(c2cc(Cc3ccccc3)[nH]n2)CC1	i
O=[S+]1([O-])NC2(CCN(Cc3cccnc3)C2)COc2ccncc21 (configuration not stated)	i

The list itself, previewed entries included:
SMILES	nsP2pro inh
CC(Oc1ccccc1Cl)C(=O)N1CCN(CCc2ccccn2)CC1 (configuration not stated)	-19%
CC(C)[C@@](O)(c1ccc2cc(OC(F)F)c(OC(F)F)cc2c1)c1cn[nH]n1	491%[activator]
CO[C@H](C)[C@H](N)C(=O)N1CCC(c2cc(Cc3ccccc3)[nH]n2)CC1	i
O=[S+]1([O-])NC2(CCN(Cc3cccnc3)C2)COc2ccncc21 (configuration not stated)	i
Cc1oc(-c2ccccc2Cl)nc1CS(=O)(=O)CC(=O)NC(C)c1ccccc1 (configuration not stated)	-8%
Fc1ccccc1CNCCCSc1nnnn1-c1ccccc1	-15%
Cc1ccccc1NC(=O)CC1C(=O)NCCN1C(=O)c1cccc(Cl)c1 (configuration not stated)	-17%
O=C(NC1CCCC1)c1ccc2c(=O)n(Cc3ccccc3)c(SCc3cccc(F)c3)nc2c1	-19%
CC1(C)OB(c2ccc(O)c3ncc(N4CCNCC4)cc23)OC1(C)C	i
Cc1ccc(Cn2c(=O)n(CCCCC(=O)NCc3ccc4c(c3)OCO4)c(=O)c3ccccc32)cc1	-8%
COc1cccc(CNc2ncnc3ccc(-c4c(C)noc4C)cc23)c1	i
C[C@]12CC[C@H](O)CC1=CCC1C2CC[C@]2(C)C(n3cnc4ccccc43)=CCC12 (some centres not stated)	34%[activator]
CCc1ccc(CNC(=O)c2nn(-c3ccc(OC)c(Cl)c3)c(=O)c3c2c2ccccc2n3C)cc1	-7%
CCN(CC)C(=O)c1sc2c(c1C)c(=O)n(CCc1ccccc1)c(=O)n2Cc1cc(C)ccc1C	-14%
O=C(NC1CCCCC1)[C@H]1CN2CC[C@H]1C[C@@H]2Cn1cc(C2(O)CCCCC2)nn1	-12%[39.2 µM]
O=C(Cn1ncc2c1-c1ccccc1OC2)N1CCN(c2ccccc2)CC1	-7%
COc1ccc(S(=O)(=O)N2CCN(c3ccccc3F)CC2)cc1-c1noc(C)n1	-24%
COC(=O)Cc1c(C)c2ccc3c(c2oc1=O)CN(Cc1ccccc1Cl)CO3	-1%
Cc1ccnc(NC(=S)N2CC3CN(c4ncc(C(F)(F)F)cc4Cl)CC3C2)c1 (configuration not stated)	-1%
O=c1cc(-c2ccccn2)oc2c(-c3ccc(CO)cc3)nccc12	0%[39.2 µM]

The closing 4 entries of the part before lead into the next:
SMILES	nsP2pro inh
COc1ccc(S(=O)(=O)N2CCN(c3ccccc3F)CC2)cc1-c1noc(C)n1	-24%
COC(=O)Cc1c(C)c2ccc3c(c2oc1=O)CN(Cc1ccccc1Cl)CO3	-1%
Cc1ccnc(NC(=S)N2CC3CN(c4ncc(C(F)(F)F)cc4Cl)CC3C2)c1 (configuration not stated)	-1%
O=c1cc(-c2ccccn2)oc2c(-c3ccc(CO)cc3)nccc12	0%[39.2 µM]
c1nc(N2CCOCC2)c2c3c(sc2n1)CN(CC1CCCCC1)CC3	-23%
Cc1c(C(=O)N[C@@H]2COCC[C@H]2Oc2ccc(C(N)=O)cc2)cnn1C	3%
COc1cc2c(cc1NS(=O)(=O)c1ccc(Br)cc1C)n(C)c(=O)n2C	-19%
O=C(Nc1ccc(F)cc1)c1oc2ccccc2c1NC(=O)C1CCCCC1	-22%
Cc1ccc2oc(-c3ccc(NC(=O)c4oc5ccc(Cl)cc5c4C)cc3)nc2c1	-16%
CCCCCCC(=O)O[C@H]1CC[C@H]2[C@@H]3CCc4cc(O)ccc4[C@H]3CC[C@]12C	-2%
CCc1nc2c(NS(=O)(=O)c3cccnc3)cccn2n1	-7%
Fc1cnc(-c2ccccc2C(F)F)nc1NCc1ccc(-n2ccnn2)cc1	-3%
O=C(NC1CCc2n[nH]c(=O)n2CC1)c1ccc(Cn2ccnc2)o1 (configuration not stated)	-5%
COc1ccc(-c2c(C)nn3c4c(cnc23)C(=O)CC(c2ccc(C)cc2)C4)cc1 (configuration not stated)	-12%
C[n+]1cc(C(O)(c2ccccc2)c2ccccc2)n2ccccc21	-6%
CC(=O)Nc1ccc(NC(=O)C2c3ccccc3C(=O)N(C3CCCC3)C23CCCC3)cc1 (configuration not stated)	i
O=C(c1cnn2cccnc12)N(Cc1ccncc1)Cc1cccc(OCCc2ccc(F)cc2)c1	i
COC1=CC(=O)O[C@@H](CCc2ccccc2)[C@@H]1O	?
O=C(O)c1ccccc1C(=O)Nc1ccc(Br)c2cccnc12	-27%
Cc1cccc(C(=O)N2CCC(N3CCN(Cc4ccc(F)cc4)C(=O)C3=O)CC2)c1	-20%
NC(=O)C1CCN(c2nc(-c3cccc(Cl)c3)cs2)CC1	i
COc1ccc(CCC(=O)Nc2nc3ccc(Cl)cc3s2)cc1OC	0%
CC(=O)Nc1ccc(-c2nnc3n(CC(C)C)c(=O)c4ccccc4n23)cc1	-21%
CN1C[C@H](NC(=O)c2cnccn2)CCC[C@@H](C(=O)N(C)Cc2cccnc2)CC1=O	i
CC#Cc1cncc(-c2ccc3c(c2)[C@@]2(N=C(C)C(N)=N2)C2(CCC(OC)CC2)C3)c1 (some centres not stated)	-7%
N#Cc1cccc(CN2CCC(N(Cc3cccnc3)C(=O)Nc3ccccc3-c3ccccc3)CC2)c1	34%[activator]
COc1ccc(F)cc1S(=O)(=O)N1C[C@@H](C(N)=O)[C@H](C2CCN(C)CC2)C1	0%
CCC[C@H](N)C(=O)N1CCC2(CCC(=O)N(Cc3cnc(C)cn3)C2)CC1	-13%
CN(C(=O)Cc1c[nH]c2ccccc12)C1CCc2nn(C)c(=O)n2CC1 (configuration not stated)	-3%
Cc1c(-c2cccc(NC(=O)Cc3ccccc3)c2)nc2ncccn12	14%
COc1ccccc1C1=Nn2c(nnc2-c2ccccc2C)SC1	-6%
CC(CCC(=O)O)[C@H]1CC[C@H]2[C@@H]3CC[C@@H]4C[C@H](O)CC[C@]4(C)[C@H]3C[C@H](O)[C@]12C (some centres not stated)	-5%
COc1ccc(C2c3c(n(CCCc4ccccc4)cnc3=N)Oc3ccc4ccccc4c32)cc1OC (configuration not stated)	-14%
COc1cc(O)cc(/C=C/c2cccc(O)c2)c1	19%
CC(=O)OCC1=C(C(=O)O)N2C(=O)[C@@H](NC(=O)CSc3ccncc3)[C@H]2SC1	-13%
CC(C)NC(=O)NC[C@H]1OC[C@@H](NCc2cnc[nH]2)[C@@H]1O	1%[39.2 µM]
COc1cc(-c2cc3n(C)c(C)c(CCC(=O)Nc4ccc(F)cc4)c(=O)n3n2)cc(OC)c1OC	-15%
C[C@@H]1C(=O)OC2[C@H](O)C34[C@@H]5OC(=O)[C@@]3(O[C@@H]3OC(=O)[C@H](O)[C@@]34[C@H](C(C)(C)C)[C@H]5O)[C@]21O (some centres not stated)	-23%
CCc1nc2ccc(C(=O)NCCc3ccc(SC)cc3)cc2nc1CC	-31%
CCC(CC)C(=O)N1CC[C@@H]2COCCN(Cc3cccnc3)[C@@H]2C1	-20%
Nc1ccn(C2CO[C@H](CO)O2)c(=O)n1 (some centres not stated)	-5%
CC1(C)OC(=O)CC(O)C2(C)C1CC(=O)C1(C)C2C(O)CC2(C)C(c3ccoc3)OC(=O)C3OC321 (configuration not stated)	?
COC(=O)C(NC(=O)CC(C)C)(Nc1nc2c(s1)CCCC2)C(F)(F)F (configuration not stated)	?
CC1(C)CC[C@]2(C(=O)O[C@@H]3O[C@H](CO)[C@@H](O)[C@H](O)[C@H]3O)CC[C@]3(C)C(=CCC4[C@@]5(C)CC[C@H](O[C@@H]6O[C@H](C(=O)O)[C@@H](O[C@@H]7O[C@H](CO)[C@@H](O)[C@H](O)[C@H]7O)[C@H](O)[C@H]6O[C@@H]6O[C@H](CO)[C@@H](O)[C@H](O)[C@H]6O)C(C)(C)C5CC[C@]43C)C2C1 (some centres not stated)	?
CC(C)C1=CC2=CCC3[C@](C)(CCC[C@@]3(C)C(=O)O)C2CC1O (some centres not stated)	5%
CC(C)Cn1c(=O)c2ccccc2n2c(CCC(=O)NC(C)c3ccccc3)nnc12 (configuration not stated)	-27%
CCCc1nc(CC)n2cc[nH]c(=O)c12	i
COc1ccc(Cn2c(=O)n(-c3ccc(C)cc3)c(=O)c3c2c2cc(C)ccc2n3C)cc1	-1%
O=C(Nc1cccc(-c2nn3c(=O)cc(N4CCNCC4)nc3s2)c1)C1CCNCC1	1%
CCOc1ccc(CC(=O)NCCS(=O)(=O)N2CCN(c3ccccc3OC)CC2)cc1	-11%
COc1ccccc1-c1ncc(C)c(NCc2ccc(-c3cccnc3)cc2)n1	i
O=C(c1ccc2c(c1)N(Cc1ccc(F)cc1Cl)C(=O)c1ccccc1S2)N1CCC2(CC1)OCCO2	-13%
CCN(CC)c1nc2ccccc2nc1C(=O)Nc1cccc(C(C)=O)c1	-3%
NCCCC[C@H](NC(=O)[C@@H]1CCCN1C(=O)[C@@H]1CSSC[C@H](N)C(=O)N[C@@H](Cc2ccccc2)C(=O)N[C@@H](Cc2ccccc2)C(=O)N[C@@H](CCC(N)=O)C(=O)N[C@@H](CC(N)=O)C(=O)N1)C(=O)NCC(N)=O	-12%

Overlap with the part before: four entries, then new ones.
SMILES	nsP2pro inh
COc1ccccc1-c1ncc(C)c(NCc2ccc(-c3cccnc3)cc2)n1	i
O=C(c1ccc2c(c1)N(Cc1ccc(F)cc1Cl)C(=O)c1ccccc1S2)N1CCC2(CC1)OCCO2	-13%
CCN(CC)c1nc2ccccc2nc1C(=O)Nc1cccc(C(C)=O)c1	-3%
NCCCC[C@H](NC(=O)[C@@H]1CCCN1C(=O)[C@@H]1CSSC[C@H](N)C(=O)N[C@@H](Cc2ccccc2)C(=O)N[C@@H](Cc2ccccc2)C(=O)N[C@@H](CCC(N)=O)C(=O)N[C@@H](CC(N)=O)C(=O)N1)C(=O)NCC(N)=O	-12%
CC[N+](C)(C)c1cccc(O)c1	8%
COc1ccccc1-c1noc(-c2ccc(NC3CCCCC3)c([N+](=O)[O-])c2)n1	-26%
COC(=O)c1cc(O)c(O)c(O)c1	?
COC(=O)c1sccc1S(=O)(=O)N(CC(=O)Nc1ccccc1)c1ccccc1	-8%
CC(C)[N+](C)(CCC(C(N)=O)(c1ccccc1)c1ccccc1)C(C)C	-2%
O=C(c1ccc(F)cc1)n1nc(-c2ccc(Cl)cc2)nc1NCc1ccco1	-23%
C=CCC(CC=C)(CNC(=O)C(=O)Nc1cc(C)ccc1OC)c1ccc(OC)c(OC)c1	-7%
O=C(c1ccccc1)N(Cc1ccco1)Cc1cccs1	-22%
COc1ccc(O)cc1CN1CCC(Cc2ccc(C(=O)O)cc2)C1 (configuration not stated)	i
C=C(C(=O)O)[C@@H]1CC[C@@]2(C)CC[C@H](O)[C@@]2(C(C)=O)C1	16%
Cc1noc(-c2ccc(N3CC4CC(C3)c3cccc(=O)n3C4)nc2)n1 (configuration not stated)	-21%
CCc1cccc(C)c1NC(=O)NC1COc2ccccc2C1 (configuration not stated)	-18%
O=C(c1ccncc1)N1C[C@@H]2OCC(=O)N(Cc3ccc(F)cc3)[C@@H]2C1	-22%[39.2 µM]
COC1CC(O[C@H]2CC[C@@]3(C)C(CCC4C3[C@H](OC(C)=O)[C@@H](OC(=O)/C=C/c3ccccc3)[C@]3(C)C(C(C)=O)CC[C@]43O)C2)OC(C)C1OC1CC(OC)C(OC2CC(OC)C(OC3OC(C)C(OC4OC(CO)C(O)C(O)C4O)C(OC)C3O)C(C)O2)C(C)O1 (some centres not stated)	-14%[5.1 µM]
CCN(CCCNC(=O)c1nn(-c2ccc(OC)c(Cl)c2)c(=O)c2c1c1ccccc1n2C)c1ccccc1	-16%
Cc1ccc(CNc2ccc3cc(S(=O)(=O)N4CCCCC4)ccc3n2)cc1	-17%
Cc1cccc(C(C(=O)N2CCN(Cc3noc(C)n3)CC2)N(C)C)c1 (configuration not stated)	i
Cc1c2cnn(CC(=O)NC(C)C)c(=O)c2c(C)n1Cc1ccccc1Cl	-18%
CN(Cc1ccc(C(=O)O)cc1)c1ccc(OCc2c(-c3c(Cl)cccc3Cl)noc2C2CC2)nc1C(F)(F)F	153%[activator]
O=C(C1CC1)N(C1CCOCC1)C1CCN(S(=O)(=O)C2CC2)CC1	i
CN(C(=O)c1cc2nc(-c3ccc4c(c3)OCO4)cc(C(F)(F)F)n2n1)c1ccc(OC(F)(F)F)cc1	-21%
O=[S+]([O-])(/C=C/c1nc(Nc2cc(F)cc(F)c2)c2ncn(CC(F)F)c2n1)c1ccccc1	-9%
O=C(Nc1ccc(Br)cc1F)N1CCC2(CC1)Oc1ccccc1C(=O)N2Cc1ccccc1F	-5%
COc1ccc(CC2C(=O)Nc3ccc(Br)cc32)cc1OC (configuration not stated)	-23%
COc1ccnc(NCc2ccc(O)c3ncccc23)c1	?
CN(C)C(=O)c1nc2sccn2c1-c1ccc(C(F)(F)F)cc1	i
CC(C)c1ccc(NC(=O)C2CCCN(S(=O)(=O)c3ccc4[nH]c(=O)oc4c3)C2)cc1 (configuration not stated)	9%
CCCS(=O)(=O)N1CCc2nn(CC3CC3)c(=O)n2CC1	i
COc1cc(CNCCSc2nnnn2C)ccc1OCc1ccccc1	-10%
CC(C)CNC(=O)c1ccc2nnc(C(C)(C)C)n2c1	-12%[39.2 µM]
O=C(CCc1nc2ccc(Cl)cc2[nH]1)N1CCc2c(nc3cc(-c4ccccc4)[nH]n3c2=O)C1	i
CO[C@@H]1[C@H](OC(=O)/C=C/C=C/C=C/C=C/C(=O)O)CC[C@]2(CO2)[C@H]1[C@@]1(C)O[C@@H]1CC=C(C)C	?
COC(=O)C1=C(C)NC(C)=C(C(=O)OCCN(C)Cc2ccccc2)C1c1cccc([N+](=O)[O-])c1 (configuration not stated)	0%

Compound activity: PubChem BioAssay, National Center for Advancing Translational Sciences (NCATS)

An excerpt; the hit share may differ from the screen's.
